# RGS16-Gao HTS: modulates binding between human RGS16 and Galphao; binding response (% of control), % at 10 µM; 220,000 compounds, 0.38% hits; bead-based flow cytometry RGS16-Galphao binding, fluorescence; actives lie on both sides; AID 1441;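 active = below 25% or above 175%, edge rows of some plates excepted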;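 also: Galphao activated by GDP with aluminum fluoride before binding; 100% = wells without compound and 0% = beads without RGS; some results beyond the cut were filed as inactive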
# Target sequence (O15492 whole entry, looked up): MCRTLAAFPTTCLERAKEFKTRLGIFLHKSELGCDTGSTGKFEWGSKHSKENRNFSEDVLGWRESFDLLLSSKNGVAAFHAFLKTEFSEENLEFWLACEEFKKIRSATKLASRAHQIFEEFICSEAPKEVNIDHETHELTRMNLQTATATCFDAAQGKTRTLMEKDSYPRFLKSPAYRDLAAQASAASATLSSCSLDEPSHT
# Target sequence (P09471 whole entry, looked up): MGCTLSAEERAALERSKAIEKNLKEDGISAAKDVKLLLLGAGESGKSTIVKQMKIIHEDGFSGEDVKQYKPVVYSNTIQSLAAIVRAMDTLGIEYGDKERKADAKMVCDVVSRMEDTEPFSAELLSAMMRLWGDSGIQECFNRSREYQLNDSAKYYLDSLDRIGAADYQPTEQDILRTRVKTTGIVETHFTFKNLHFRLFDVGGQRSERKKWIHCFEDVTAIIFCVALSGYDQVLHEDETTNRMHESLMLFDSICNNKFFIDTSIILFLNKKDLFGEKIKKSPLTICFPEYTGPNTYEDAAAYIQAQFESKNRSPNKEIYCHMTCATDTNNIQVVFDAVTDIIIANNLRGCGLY
# GALR2 agonist: activates the human galanin receptor 2 | O43603 | GALR2-expressing cells, agonist activation read-out | activation, %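 (tested at 5 µM)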 | 140,000 compounds, 0.48% hits | AID 803;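 active = above mean plus 3 SD of all compounds, about 5% in these data, not always enough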;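 also: 0% = vehicle buffer wells and 100% = reference agonist at full effect; tested in CHO reporter cells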
# Target sequence (O43603 whole entry, looked up): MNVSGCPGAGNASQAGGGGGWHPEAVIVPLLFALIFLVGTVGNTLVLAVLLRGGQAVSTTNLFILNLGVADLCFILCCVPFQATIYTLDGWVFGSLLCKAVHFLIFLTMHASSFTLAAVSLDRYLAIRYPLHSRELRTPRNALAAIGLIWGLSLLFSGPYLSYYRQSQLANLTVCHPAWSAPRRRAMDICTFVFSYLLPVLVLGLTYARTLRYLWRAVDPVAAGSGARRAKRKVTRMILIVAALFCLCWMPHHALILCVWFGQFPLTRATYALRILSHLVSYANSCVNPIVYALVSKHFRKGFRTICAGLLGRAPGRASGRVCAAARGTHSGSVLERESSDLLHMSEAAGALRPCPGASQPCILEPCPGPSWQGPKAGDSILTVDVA
# PKD1 kinase inh: inhibitors of human PKD1 kinase | PKD1 kinase fluorescence polarization assay | 200,000 compounds, 0.056% hits | Q15139 | inhibition, %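 (about 10 µM by stock and volumes)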;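 active = inhibition of 50% or more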;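 also: controls were vehicle for no effect and a reference inhibitor for full effect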
# INS promoter inh: TRM-6 insulin promoter activity inhibition; TRM-6 cells (human fetal islet line), insulin promoter-eGFP reporter, imaging; reporter expression induced with tamoxifen; inhibition, % at 2 µM; 130,000 compounds, 0.9% hits; AID 1273;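 active = inhibition above the mean plus 3 SD, with well images judged a real hit on visual review, cut at about 60% in these data, passing the limit was not always enough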
# HSV replic up: increases HSV replication in cells; maximum fold increase; 220,000 compounds, 0.005% hits; HSV replication augmentation in cells, fold increase;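 active = peak rise of 1.5-fold or more in the series; tested in PC3 cells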;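 also: first round at 10 µM; read as green reporter fluorescence; hits show the peak of a series up to 25 µM; 1 = signal of infected wells without compound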
# INS promoter inh cell count: further read-out of INS promoter inh, marked with its call; normalized cell count, %; measured here: cell count, toxicity; reference of the scale not given here;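 cells exposed to compound for 48 h; stained nuclei by imaging scaled within each plate; lower means fewer cells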
# HSV replic up primary fold: also measured in HSV replic up; calls as there; fold increase; compound at 10 µM; measured here: primary screen fold increase 10 uM; tested in PC3 cells;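 GFP signal in the first replicate; 1 = infected wells without compound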
# * = called active by the depositor; i = inactive; . = no result given.
SMILES,RGS16-Gao HTS,GALR2 agonist,PKD1 kinase inh,INS promoter inh,INS promoter inh cell count,HSV replic up,HSV replic up primary fold
CC(=O)Nc1cccc(OCc2ccc(S(=O)(=O)Cc3ccccc3)cc2)c1,36,-1.1,10,-31,59,i,0.94
O=C(NC(=S)Nc1ccc(S(=O)(=O)Nc2nccs2)cc1)c1ccc(Br)o1,96,.,-7,-64,178,i,0.88
O=C(CCC1CCCCC1)NCc1ccncc1,106,-3.0,-4,23,31,i,1
CN(C)S(=O)(=O)c1ccc(Cl)c(NC(=O)CN2CCNC(=O)C2)c1,96,.,-4,15,108,i,0.97
O=C1CSC(c2ccncc2)N1Cc1ccc(F)cc1 (configuration not stated),105,.,.,.,.,i,0.95
O=C(COC(=O)C1c2ccccc2Oc2ccccc21)Nc1ccc2c(c1)OCO2,99,0.8,2,-118,112,i,1
Clc1ccc(-c2nc3ncccn3c2Cl)cc1,95,.,-4,.,.,i,1
COC(=O)c1ccc(CSc2nnc(CNC(=O)c3ccc(OC)cc3)o2)o1,99,-0.7,1,-5,72,i,1
CCCNC(=O)c1nnsc1Sc1ccc(Cl)cc1,111,.,-6,18,149,i,0.83
CCOC(=O)c1c(N)sc(C(=O)Nc2ccccc2)c1C,100,.,3,.,.,i,0.97
COc1ccc(CC(=O)NC(=S)Nc2ccc(S(N)(=O)=O)cc2)cc1,95,-1.8,-9,50,105,i,0.91
CN1CCN(c2ccc([N+](=O)[O-])cc2NC(=O)c2ccccc2)CC1,95,-1.8,-2,.,.,i,0.92
CCOC(=O)c1sc(=S)n2c1[nH]c(=O)c1ccc(C(=O)OC)cc12,64,-1.7,-6,.,.,i,0.89
CCN1CCN(/C=N/c2nc(C)cs2)CC1,103,-0.5,8,-43,106,i,0.73
CC(=O)c1cccc(NC(=O)N[C@@H](CC(C)C)C(=O)O)c1,97,-0.6,3,.,.,i,0.98
O=C(NNC(=O)c1ccc(Cl)cc1Cl)c1csc(-c2cccnc2)n1,103,.,.,.,.,i,1
Cc1ccc(N=C(c2cccs2)N2CCOCC2)cc1,100,-3.5,-1,.,.,i,0.96
Cc1ccc(-c2nc3sc4c(c3c(=O)n2N)CC(C)(C)OC4)cc1,106,-0.7,-6,-53,130,i,0.99
COc1cc(-c2nc3cccc(C)n3c2NCC2CCCO2)ccc1O (configuration not stated),106,.,1,-50,92,i,1
N=C1/C(=C/c2cccn2-c2cccc([N+](=O)[O-])c2)C(=O)N=C2SC=CN12,103,-0.5,0,15,145,i,0.88

# The list goes on (6 carried over from the part before).
SMILES,RGS16-Gao HTS,GALR2 agonist,PKD1 kinase inh,INS promoter inh,INS promoter inh cell count,HSV replic up,HSV replic up primary fold
CC(=O)c1cccc(NC(=O)N[C@@H](CC(C)C)C(=O)O)c1,97,-0.6,3,.,.,i,0.98
O=C(NNC(=O)c1ccc(Cl)cc1Cl)c1csc(-c2cccnc2)n1,103,.,.,.,.,i,1
Cc1ccc(N=C(c2cccs2)N2CCOCC2)cc1,100,-3.5,-1,.,.,i,0.96
Cc1ccc(-c2nc3sc4c(c3c(=O)n2N)CC(C)(C)OC4)cc1,106,-0.7,-6,-53,130,i,0.99
COc1cc(-c2nc3cccc(C)n3c2NCC2CCCO2)ccc1O (configuration not stated),106,.,1,-50,92,i,1
N=C1/C(=C/c2cccn2-c2cccc([N+](=O)[O-])c2)C(=O)N=C2SC=CN12,103,-0.5,0,15,145,i,0.88
Cc1cccc(NC(=O)c2ccc([N+](=O)[O-])o2)n1,48,-1.5,5,.,.,i,0.75
Nc1nc(NCc2ccco2)nc(N2CCCCC2)c1[N+](=O)[O-],103,-0.1,5,-20,155,i,0.9
C(/C=C/C=C/Nc1ccccc1)=Nc1ccccc1,98,-0.9,-4,21,117,i,0.85
CCOC(=O)c1c(C)nc(-c2ccccc2)nc1NC(=O)CC,146,-1.5,-12,71*,76*,i,0.89
COc1ccc(-c2cc3nc4c(c(=O)n3[nH]2)CCC4)cc1,94,1.0,-2,-16,113,i,0.99
Cn1c(SCc2cccc(Cl)c2)nc(C(F)(F)F)cc1=O,106,-1.7,-11,17,100,i,1.2
NC(=S)NNc1cccc2cccnc12,104,.,-1,.,.,i,0.94
CC(=O)OCC[n+]1c(C)n(-c2ccccc2)c2ccc(Cl)cc21,92,.,1,0,118,i,0.87
COc1ccc(-c2noc(CCC(=O)NCC3CCCO3)n2)cc1 (configuration not stated),102,.,.,.,.,i,0.96
COC(=O)c1ccc(C)c(NS(=O)(=O)c2ccc(C)c([N+](=O)[O-])c2)c1,102,3.1,-17,-62,95,i,0.98
Cc1ccc(C2=NN(C3=NN=C(N)Cc4ncnn43)C(O)(C(F)(F)F)C2)cc1 (configuration not stated),101,.,0,.,.,i,1
Cc1cccc(C)c1NC(=O)Nc1ccccc1-n1ccnc1,95,.,8,.,.,i,0.89
O=C(CSc1nc2cc(C(F)(F)F)ccc2n1Cc1ccccc1)NC1CCS(=O)(=O)C1 (configuration not stated),101,0.7,-1,-39,100,i,0.88
N#Cc1nc(-c2cccs2)oc1NCCCN1CCOCC1,107,-2.0,-1,-154,105,i,1.3
CCOc1cc(/C=N/O)ccc1OCc1ccc(F)cc1,112,0.5,-5,-15,123,i,0.87
CCOC(=O)C1(CC2CC2)CCN(Cc2cc(Cl)c(O)c(OC)c2)CC1,104,.,-12,.,.,i,0.62
Cc1nn2c(-c3ccc(Cl)cc3)ccnc2c1-c1ccccc1,97,-1.6,0,0,69,i,0.89
O=C(Nc1ccc2oc(-c3ccccc3F)nc2c1)c1ccco1,105,.,1,.,.,i,0.95
CCn1c(N2CCN(S(=O)(=O)c3ccc(Cl)cc3)CC2)nc2ccccc21,105,.,0,.,.,i,0.97
c1ccc(OCCCn2nnc(-c3ccncc3)n2)cc1,103,-0.6,-3,16,173,i,0.94
CC1(C)CC(=O)C2=C(C1)OC(N)=C(C#N)C2c1ccccc1 (configuration not stated),95,0.0,-2,.,.,i,0.98
Cn1c(CSc2ncn[nH]2)nc2ccccc21,107,-0.7,-4,-11,124,i,0.97
Cc1cc2c3c(c1C)C1(C(=O)N3C(C)(C)CC2C)C(C#N)=C(N)Oc2n[nH]c(C)c21 (configuration not stated),100,-2.1,-3,0,64,i,0.93
COc1ccc2[nH]c(CN3CCN(C(C)C)C(CCO)C3)c(C)c2c1 (configuration not stated),98,.,8,.,.,i,1.2
C/C(=N\N1C(=O)c2ccccc2NC1c1ccccc1)c1ccccc1O (configuration not stated),99,.,5,.,.,i,0.91
CCc1cc2c(=O)c(-c3ccon3)c(N)oc2cc1OC,107,0.1,-5,.,.,i,0.95
CCCc1nc(N2CCOCC2)c2sc(=S)n(-c3ccccc3)c2n1,106,-3.1,-2,.,.,i,0.82
COc1ccc(N(CC(=O)NCc2ccccc2)S(=O)(=O)c2c(C)noc2C)cc1,100,-1.1,-1,.,.,i,0.72
Oc1ccccc1C1CC(c2cccs2)=NC(c2cccc(Br)c2)N1 (configuration not stated),100,.,-6,18,97,i,0.87
Cc1cc(NC(=O)COC(=O)c2n[nH]c3ccccc23)no1,100,-1.8,-4,0,94,i,0.91
O=c1c(-c2ccc(Cl)cc2)[n+]([O-])c2ccccc2n1OCc1ccccn1,101,-1.6,-4,.,.,i,0.69
Cc1ccnc2nc(C(=O)OCCOc3ccc(Cl)cc3)nn12,110,.,-6,-42,72,i,0.83
Oc1[nH]c2ccccc2c1N=Nc1ccc(F)cc1,103,-0.7,3,-31,144,i,0.91
COc1nccnc1NS(=O)(=O)c1ccc(N=Cc2c(C)[nH]n(-c3ccccc3)c2=O)cc1,78,-1.3,-12,14,108,i,1.1
CC(C)(C)NC(=O)c1ccc2c(c1)C(=O)N(C1CCCCC1)C2=O,94,-0.3,-3,31,101,i,0.78
COc1ccc(C(=O)O)nc1C,103,.,.,.,.,i,1.2
COc1ccccc1C(=O)Nc1nc(-c2ccc3c(c2)OCCO3)cs1,112,.,-2,-18,170,i,1.1
CCCNC(=O)NS(=O)(=O)c1cnccc1Sc1ccc(Cl)c(Cl)c1,104,-0.6,-8,-55,82,i,0.85
CCc1nnc(NC(=O)c2ccc(S(=O)(=O)N3CCOCC3)cc2)s1,100,-1.0,10,.,.,i,0.81
O=C(/C=C/c1ccco1)N1CCN(S(=O)(=O)/C=C/c2ccccc2)CC1,103,.,6,-5,102,i,1.1
CCc1ccccc1NC(=S)NCC1CCN(c2ccc(OC)cc2)C1 (configuration not stated),104,.,.,.,.,i,0.91
CCC1CCCCN1C(=O)CSc1nnc(-c2ccco2)o1 (configuration not stated),98,-1.0,-2,86*,43*,i,1.1
O=C(Cc1coc2cc3c(cc12)CCC3)NCC1(N2CCCCC2)CCCCC1,154,-1.1,0,-9,55,i,1.1
CCc1ccc(NC(=S)Nc2ccc3[nH]c(=O)[nH]c3c2)cc1,92,.,.,.,.,i,1.1
COc1ccc(C(=O)N[C@H](C(=O)NCC2CCCCC2)C(C)C)cc1,94,-1.6,-7,30,136,i,0.98
CC1(c2ccccc2)NC(=O)N(Cc2ccc([N+](=O)[O-])cc2)C1=O (configuration not stated),107,-0.1,-4,.,.,i,0.98
CN(C)c1ccc(NC(=O)Nc2cccc(Cl)c2)cc1,92,-2.3,-4,-4,87,i,0.85
CCOC(=O)c1cnn2cc(-c3[nH]ncc3[N+](=O)[O-])cnc12,96,-0.2,4,0,141,i,0.95
Cc1cc(Nc2ccc(F)cc2)n2nc(C)nc2n1,104,-1.2,4,.,.,i,0.94
COC(=O)C1=C(C)NC2=C(C1c1ccc(O)cc1)S(=O)(=O)c1ccccc12 (configuration not stated),98,-0.4,4,13,66,i,1
OCCC1CN(Cc2cnn(-c3ccc(F)cc3)c2)CCN1Cc1ccsc1 (configuration not stated),101,.,8,5,118,i,1.2
O=C(CC12CCC(CC1)C2)NCc1ccc2c(c1)OCO2,102,-1.4,-1,-48,127,i,0.91
COc1cc(CC(=O)N(c2ccccc2)c2nc(C)cs2)cc(OC)c1OC,99,.,0,.,.,i,0.91
CCn1cc(C(=O)N2CCN(Cc3ccc4c(c3)OCO4)CC2)c(=O)c2ccc(C)nc21,99,-1.1,-6,-23,103,i,1
Cc1ccc2c(c1)cc(CN(Cc1ccco1)C(=O)N1CCOCC1)c1nnnn12,106,.,-5,.,.,i,1
COCCNC(=S)NNC(=O)c1cccs1,104,.,-6,45,155,i,0.98
O=c1[nH]c(-c2ccc(O)cc2)nc2scc(-c3cccs3)c12,95,.,.,.,.,i,0.87
O=C(CSc1nnnn1-c1cccc2ccccc12)N1CCOCC1,102,-2.2,-6,12,122,i,1
COc1ccc(Cl)cc1-c1nc(SCC(=O)NC(C)C(C)C)n[nH]1 (configuration not stated),101,.,3,-164,42,i,1.1
NC(=O)CSC1=N/C(=C\c2ccco2)C(=O)N1c1ccc(OC(F)F)cc1,99,.,-2,.,.,i,1.1

# Next structures:
SMILES,RGS16-Gao HTS,GALR2 agonist,PKD1 kinase inh,INS promoter inh,INS promoter inh cell count,HSV replic up,HSV replic up primary fold
O=C(Cn1nc(-c2ccccc2)c2ccccc2c1=O)Nc1ccccn1,102,-1.4,-1,22,110,i,0.89
Cc1cc(C)nc(N2CCCC(C(=O)Nc3ccc4c(c3)OCO4)C2)n1 (configuration not stated),98,-4.0,-4,.,.,i,0.9
Cc1cc(C(=O)OCC(=O)N2CCN(C(=O)c3ccco3)CC2)c(C)n1-c1ccc(F)cc1,103,-0.3,9,.,.,i,1
CCNCCNC(=O)c1c(O)c2cccc3c2n(c1=O)CCC3,91,0.4,9,-26,112,i,0.89
Cc1cccc2nc(CSC(=N)N)c(Br)n12,99,-0.3,4,-46,115,i,0.8
CC(C)CCn1c(N2CCC(C(N)=O)CC2)nc2c1c(=O)[nH]c(=O)n2C,105,-2.8,-8,.,.,i,1
COCCn1c(SCC(=O)c2[nH]c(C)c(C(C)=O)c2C)nc2ccccc21,96,-3.0,11,23,131,i,0.92
CCCOC(=O)c1ccc(-n2nnnc2SCC(=O)N2CCCCC2)cc1,111,-4.1,-5,.,.,i,0.81
CC1(C)CC(=O)C=C(NCc2cccs2)C1,102,-1.1,-4,27,57,i,0.84

# Of the compounds above, these have a COOH group.
SMILES,RGS16-Gao HTS,GALR2 agonist,PKD1 kinase inh,INS promoter inh,INS promoter inh cell count,HSV replic up,HSV replic up primary fold
CC(=O)c1cccc(NC(=O)N[C@@H](CC(C)C)C(=O)O)c1,97,-0.6,3,.,.,i,0.98
COc1ccc(C(=O)O)nc1C,103,.,.,.,.,i,1.2

# This is a random part of the collection, and some 1.3% of all compounds hit somewhere here.
